KCNQ2 block – KCNQ2 potassium channel inhibitors, primary screen, cell-based, CHO-K1, FluxOR thallium flux, B-score (AID 2156). O88943. 20 min; stronger effect = lower value; only compounds with negative scores are shown here; some inactives read as strong as hits. B-score at 10 µM. 310,000 compounds, 1.1% hits;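 active = fluorescence ratio B-score at most minus 3 library SDs, with starting brightness B-score within 2 library SDs, cut at about -5.5 in these data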
Target sequence (O88943 whole entry, looked up): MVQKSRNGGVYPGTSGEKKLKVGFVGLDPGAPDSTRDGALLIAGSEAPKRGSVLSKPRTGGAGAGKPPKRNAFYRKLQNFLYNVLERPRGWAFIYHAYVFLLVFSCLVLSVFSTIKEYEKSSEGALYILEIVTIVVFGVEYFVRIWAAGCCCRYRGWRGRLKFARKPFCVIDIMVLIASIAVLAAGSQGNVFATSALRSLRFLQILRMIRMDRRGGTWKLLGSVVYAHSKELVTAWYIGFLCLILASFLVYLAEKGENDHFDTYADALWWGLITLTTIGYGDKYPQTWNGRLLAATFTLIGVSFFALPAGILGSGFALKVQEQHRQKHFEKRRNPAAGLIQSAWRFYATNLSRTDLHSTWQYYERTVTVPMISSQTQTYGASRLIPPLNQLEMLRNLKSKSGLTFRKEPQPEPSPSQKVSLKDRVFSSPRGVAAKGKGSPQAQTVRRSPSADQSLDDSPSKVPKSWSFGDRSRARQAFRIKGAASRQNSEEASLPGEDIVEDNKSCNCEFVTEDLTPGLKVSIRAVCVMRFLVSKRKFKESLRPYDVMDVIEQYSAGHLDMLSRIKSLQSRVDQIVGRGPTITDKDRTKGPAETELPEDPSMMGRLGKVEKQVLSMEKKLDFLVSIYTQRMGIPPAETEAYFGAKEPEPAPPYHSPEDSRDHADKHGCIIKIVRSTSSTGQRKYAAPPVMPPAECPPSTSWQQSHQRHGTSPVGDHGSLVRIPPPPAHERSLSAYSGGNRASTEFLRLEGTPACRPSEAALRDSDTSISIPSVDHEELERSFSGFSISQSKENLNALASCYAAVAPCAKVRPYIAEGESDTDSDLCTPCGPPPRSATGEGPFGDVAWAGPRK
KCNQ2 block baseline – recorded beside KCNQ2 block, whose call it bears; B-score; measured here: initial fluorescence intensity artifact check;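 brightness before thallium and not channel activity; 0 = typical well and far values either way flag optical interference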
The depositor's hits bear a star; i = inactive. Only part of the results is shown; count on the stated rates, not on these rows.

Each structure is followed by: KCNQ2 block	KCNQ2 block baseline
- O=C(NNC(=O)C12CC3CC(CC(C3)C1)C2)c1cccc(O)c1
  i	1.4
- C=CCNc1nc(Cl)nc(Nc2ccc(OC)cc2OC)n1
  i	0.11
- CCCC(=O)Nc1nnc(/C=C/c2ccccc2)s1
  i	2.5
- COc1ccc(OC)c(CCNC(=O)CS(=O)(=O)Cc2nc(-c3ccc(C)cc3)oc2C)c1
  i	-0.3
- C/C(=N/NC(=O)CNc1ccc(C)cc1)c1ccc(Cl)cc1
  i	1.2
- COC(=O)c1ccc(COc2ccc(-c3nnn(CC(N)=O)n3)cc2)cc1
  i	1.1
- O=C(NCCO)c1ccc(CSc2nc3ccccc3[nH]2)cc1
  i	-1.7
- Cc1cc(C)c(C#N)c(SCC(=O)Nc2ccccc2)n1
  i	-0.81
- COC(=O)c1ccc(N2CCN(S(=O)(=O)c3ccc(Br)cc3)CC2)c([N+](=O)[O-])c1
  i	-0.02
- COc1ccc(S(=O)(=O)NC(C)C(=O)NCC2CCCO2)cc1OC (stereo not given)
  i	-0.41
- O=C(Nc1ccccc1)N(C1=NCCC1)c1ccccc1
  i	-0.02
- CCOC(=O)N1CCN(C(=O)c2ccccc2N(Cc2ccccc2)S(=O)(=O)c2ccccc2)CC1
  i	-0.82
- Cc1ccc(NC(=O)[C@H](CC(C)C)NC(=O)[C@@H]2Cc3ccccc3CN2)cc1
  i	0.81
- O=C(C1CCCN(S(=O)(=O)c2ccc(Cl)cc2)C1)N(Cc1cccs1)C1CC1 (stereo not given)
  i	-2.1
- CCOC(=O)C1(CCCc2ccccc2)CCN(C(=O)c2cnn(CC)c2)CC1
  i	-0.77
- CC1CCCN(CC(O)COCc2ccccc2)C1 (stereo not given)
  i	-0.55
- CN(C(=O)CO/N=C/c1ccc(Cl)cc1)c1ccccc1
  i	0.47
- CCc1cccc(C)c1NC(=O)c1ccc(CN2CCc3ccccc3C2)cc1
  i	0.12
- N#CCSc1nnc(COc2cccc3ccccc23)n1-c1ccccc1
  i	1
- Cc1ccc(NS(=O)(=O)c2cc3c4c(cccc4c2)C(=O)NC3=O)cc1C
  i	1

2 entries picked at random from those above:
Each structure is followed by: KCNQ2 block	KCNQ2 block baseline
- O=C(Nc1ccccc1)N(C1=NCCC1)c1ccccc1
  i	-0.02
- Cc1ccc(NS(=O)(=O)c2cc3c4c(cccc4c2)C(=O)NC3=O)cc1C
  i	1

New compounds follow.
Each structure is followed by: KCNQ2 block	KCNQ2 block baseline
- Cc1ccc2nc(C3CCCN(C(=S)Nc4cccc(C)c4C)C3)[nH]c2c1 (stereo not given)
  i	-1.5
- O=C(NCc1cccnc1)c1ccccn1
  i	-1.9
- Cc1oc2cc3oc(=O)c(CCC(=O)NCCCC(=O)O)c(C)c3cc2c1C
  i	0.01
- O=C(CSc1nnc(Cc2ccccc2)n1-c1cccc(Cl)c1)NNC(=O)Cc1ccccc1
  i	-0.04
- CCOC(=O)Cc1c(C)c2c(C)[nH]nc2oc1=O
  i	-0.03
- CC(=O)c1ccc(S(=O)(=O)N2CCCC(N(C)CCc3ccccc3)C2)cc1 (stereo not given)
  i	1.5
- COc1ccc(OC)c(NC(=S)NCCC(c2ccccc2)c2ccccc2)c1
  i	1.3
- O=C(c1cc(COc2c(F)cccc2F)on1)N(Cc1ccccc1)CC1CC1
  i	1.4
- CN(C(=O)c1ccc(Cl)cc1)C1=CCCCC1CCC#N (stereo not given)
  i	1
- CCCN(CCC)C(=O)CC(c1ccccc1)c1cc(Br)ccc1O (stereo not given)
  i	-0.01

In the list so far, 3 contain an NH in an aromatic ring.
Each structure is followed by: KCNQ2 block	KCNQ2 block baseline
- O=C(NCCO)c1ccc(CSc2nc3ccccc3[nH]2)cc1
  i	-1.7
- Cc1ccc2nc(C3CCCN(C(=S)Nc4cccc(C)c4C)C3)[nH]c2c1 (stereo not given)
  i	-1.5
- CCOC(=O)Cc1c(C)c2c(C)[nH]nc2oc1=O
  i	-0.03

Later entries
Each structure is followed by: KCNQ2 block	KCNQ2 block baseline
- CC(=O)c1ccc(NC(=O)CCCC(=O)c2ccccc2)cc1
  i	2.9
- FC(F)(F)c1cccc(CNC(=S)Nc2ccccc2)c1
  i	0.6
- COCCCNC(=O)C1CCC(=O)N1Cc1ccccc1Cl (stereo not given)
  i	0.56
- Cc1nc(Nc2ccc(S(N)(=O)=O)cc2)oc1C
  i	0.84
- O=C(CCN1CCN(Cc2ccccc2)CC1)NNC(=O)Nc1cccc(C(F)(F)F)c1
  i	0.56
- O=C(Nc1cc(Sc2ccccn2)cc([N+](=O)[O-])c1)c1cccc(Cl)c1
  i	0.62
- CCCCNC(=O)c1onc(CSc2ccccc2CC)c1C(=O)O
  i	-0.65
- N#CC1=C(N)Oc2cc(O)c(C=Nc3ccccc3)cc2C1c1ccccc1 (stereo not given)
  i	2
- Cc1cc(NC(=O)Cn2cc([N+](=O)[O-])cn2)n(Cc2ccc(F)cc2)n1
  i	0.04
- O=C(CSc1ncccc1C(=O)O)NC1CCCCC1
  i	-0.34
- Cc1nn(C(C)c2nc(-c3ccccc3)no2)c(C)c1[N+](=O)[O-] (stereo not given)
  i	0.35
- O=C(CCNS(=O)(=O)c1cccc2nonc12)NCCc1ccc(Cl)cc1
  i	-0.02
- O=C(NCc1ccccc1)C(=O)NCC1OCCN1S(=O)(=O)c1cccs1 (stereo not given)
  i	-0.84
- COC(=O)c1ccccc1NC(=O)c1noc2c1CCC2
  i	-0.01
- c1ccc(-c2nnc(N3CCN(c4ccccn4)CC3)c3ccccc23)cc1
  i	0.07
- O=C(Nc1ccc(F)cc1)c1ccc2c(=O)n3c(nc2c1)CCCCC3
  i	0.41
- FC(F)(F)c1cc(Cl)c2nnc(-c3cccnc3)n2c1
  i	-1.3
- COC(=O)c1ccccc1NC(=O)CN(CCc1ccccc1)S(C)(=O)=O
  i	-1.8
- Cc1cccc(NC(=O)c2cccc(NS(=O)(=O)c3ccc(Cl)cc3)c2)c1
  i	-1.9
- CCCCOC(=O)C1CN(c2ccccc2)N=C1C(C)=O (stereo not given)
  i	0.83
- CC1(C)CC(=O)C2=C(C1)N(c1ccc(Cl)cc1)C(=O)C2(O)C(F)(F)F (stereo not given)
  i	0.61
- COc1cc(C(=O)NCCC(=O)N2CCCCC2)cc(OC)c1OC
  i	1.1
- C=CCn1c(SCc2c(F)cccc2Cl)nnc1-c1ccco1
  i	-1.3
- COc1ccc(/C=C(/NC(=O)c2ccc(OC)c(OC)c2)C(=O)NCCc2c[nH]c3ccccc23)cc1
  i	0.15
- CCn1c(NCc2cc(Cl)ccc2O)nc2ccccc21
  -5.6*	1.7*
- CCOC(=O)CN(C(=O)COc1nc(C)cc(C)c1C#N)c1ccc(F)cc1
  i	0.74
- O=C(Nc1ccccc1)c1ccccc1NS(=O)(=O)c1ccc(Cl)s1
  i	0.09
- COC(=O)c1ccc(N/C=C/C(=O)c2ccccc2)cc1
  i	1.5
- CCOc1ccc(NC(=O)CCC(=O)N/N=C2\CCCc3ccccc32)cc1
  i	-0.18
- Cn1c(C(=O)N[C@@H](Cc2ccccc2)C(=O)NCCC(=O)O)cc2cc(Cl)ccc21
  i	-0.1

Exported with each value named: entries from further up.
O=C(Nc1ccccc1)c1ccccc1NS(=O)(=O)c1ccc(Cl)s1
  KCNQ2 block = i	KCNQ2 block baseline = 0.09

CCOC(=O)CN(C(=O)COc1nc(C)cc(C)c1C#N)c1ccc(F)cc1
  KCNQ2 block = i	KCNQ2 block baseline = 0.74

The results go on.
Each structure is followed by: KCNQ2 block	KCNQ2 block baseline
- CSc1ccc(S(=O)(=O)NCC(=O)OCC(=O)NCCc2ccccc2)cc1[N+](=O)[O-]
  i	1.5
- CCC(C)(C)NC(=O)C(c1ccc(O)cc1)N(Cc1ccco1)C(=O)CCC(=O)Nc1ccccn1 (stereo not given)
  i	0.74
- Cc1cc(C)n(/N=C/c2ccc(C(C)C)cc2)c(=O)c1C#N
  i	-1.1
- CCOC(=O)C1CC(=O)c2cc(OC)c(OC)cc2C1 (stereo not given)
  i	0.23
- CSc1nsc(SCC(=O)Nc2cc(C(=O)O)ccc2C)n1
  i	3
- O=C(NCc1ccncc1)c1ccc(Br)o1
  i	-0.79
- COc1ccc(Cl)cc1NC(=O)CN(C)CC(=O)NC(C)c1ccccc1 (stereo not given)
  i	1.2
- CC1=C(/C=N/Nc2ccc([N+](=O)[O-])cc2[N+](=O)[O-])C(C)(C)CCC1
  i	1.3
- NC(=O)c1cc2ccccc2o/c1=N\NC(=O)c1ccncc1
  i	1.2
- COc1cc2c(cc1NC(=O)c1ccc(C)c([N+](=O)[O-])c1)oc1ccccc12
  i	1.6
- CC(=O)c1cc(C#N)c(N2CCN(c3ccccc3)CC2)nc1C
  i	-0.99
- COc1ccccc1C(=O)Nc1ccc(S(=O)(=O)N2CCCC2)cc1
  i	-0.15
- O=c1[nH]c(C2CCCN(S(=O)(=O)c3cccc(Cl)c3)C2)nc2c1nnn2Cc1ccc2c(c1)OCCO2 (stereo not given)
  i	-1.1
- C=CCn1c(SC(C)C(=O)NCc2ccc3c(c2)OCO3)nc2scc(-c3ccccc3)c2c1=O (stereo not given)
  i	0.37
- Oc1ccc(Nc2nc(-c3ccc(O)cc3)cs2)cc1
  i	-2.4
- COc1cc(C(=O)OCC(=O)NCc2ccco2)cc(OC)c1OC
  i	0.76
- COc1cc(C(=O)Nc2ccc(Oc3ncnc4sc(-c5ccccc5)cc34)cc2)cc(OC)c1OC
  i	1.8
- COc1cc(/C=C2\SC(=S)N(CCCCC(=O)O)C2=O)ccc1OS(=O)(=O)c1ccc(C)cc1
  i	-1.9
- COc1ccc(C(C)(C)C)cc1NC(=O)C1C2C=CC(C2)C1C(=O)O (stereo not given)
  i	0.11
- O=S(=O)(NCC1CCCO1)c1ccc2oc3ccc(S(=O)(=O)NCC4CCCO4)cc3c2c1 (stereo not given)
  i	1.1

As entered above.
Result for COc1ccc(C(C)(C)C)cc1NC(=O)C1C2C=CC(C2)C1C(=O)O (stereo not given) under KCNQ2 block baseline: 0.11
Result for COc1cc(C(=O)Nc2ccc(Oc3ncnc4sc(-c5ccccc5)cc34)cc2)cc(OC)c1OC under KCNQ2 block baseline: 1.8

Following part
Each structure is followed by: KCNQ2 block	KCNQ2 block baseline
- O=C(CCS(=O)(=O)c1ccccc1)Nc1nc2c(s1)CCCC2
  i	0.08
- O=C(Nc1ccc(C(=O)O)cc1)/C(=C\c1ccccc1)NC(=O)c1ccc(Br)cc1
  i	-0.33
- COc1cccc(C(=O)NC2CCN(CC(=O)Nc3c(C)cc(C)cc3C)CC2)c1
  i	0.04
- CCC1(C)SC(NC(C)=O)=NN1C(C)=O (stereo not given)
  i	2.9
- O=C(Cc1cccs1)N(Cc1ccco1)C1(C(=O)NC2CCCC2)CCCCC1
  i	-0.28
- c1ccc(CSc2ncn(-c3ccccc3)n2)cc1
  i	0.19
- CCN(CC)CCN1CNC(=S)N(c2ccccc2OC)C1
  i	-0.38
- COc1cc(C(=O)Nc2ccc(S(=O)(=O)NC(C)(C)C)cc2)cc(OC)c1OC
  i	-1.8
- CCc1ccc(OCC(=O)NC(=S)Nc2ccc(C(=O)O)cc2)cc1
  i	-0.84
- CC(C)c1ccc(NC(=S)N2CCCC2)cc1
  i	0.01
- CC1CCN(C(=O)CSc2nnc(-c3ccc(S(=O)(=O)N4CCOCC4)cc3)n2C)CC1
  i	-0.85
- NC(=O)c1nsc(C(=O)N(c2ccccc2)C(C(=O)NCC2CCCO2)c2ccc(F)cc2)c1N (stereo not given)
  i	-0.1
- NS(=O)(=O)c1ccc(CCNC(=O)c2ccccc2-c2ccccc2)cc1
  i	-0.53
- Cc1ccc(/C=C/C(=O)N2CCc3ccccc32)o1
  i	-0.14
- CCOc1ccc(-n2cc(C(=O)Nc3cccc(Cl)c3)c3cc(OC)c(OC)cc3c2=O)cc1
  i	-0.4
- FC(F)(F)c1cccc(Cc2noc(CN3CCSCC3)n2)c1
  i	0.18
- O=C(c1ccccc1)n1c(=O)c(F)cn(COCCBr)c1=O
  i	0.16
- CN(CC(=O)Nc1ccc(Cl)cc1)C(=O)Cn1[nH]c(=O)c2ccccc2c1=O
  i	-0.21
- COc1ccc(C2(CNC(=O)/C=C/c3ccco3)CCCC2)cc1OC
  i	-0.78
- Cc1sc2nc(CSCC(=O)Nc3ccc(N4CCOCC4)cc3)[nH]c(=O)c2c1C
  i	1.1
- O=C(COc1cccc(C(F)(F)F)c1)Nc1ccc2[nH]ncc2c1
  i	0.07
- COc1ccc(OCC(=O)NNC(=S)NC(=O)c2ccc(Br)o2)cc1
  i	0.45
- CCN(CC(=O)Nc1c(F)cccc1F)C(=O)CC1CCCC1
  i	0.01
- CCOc1ccc(N2C(=O)CC(Sc3nc(C)cc(C)c3C#N)C2=O)cc1 (stereo not given)
  i	-0.11
- CC(=O)Nc1ccc(S(=O)(=O)N(C)CC(=O)OCC(=O)N2CCc3ccccc32)cc1
  i	-1.1
- CCC(C)n1ncn(-c2ccc(N3CCN(c4ccc(O)cc4)CC3)cc2)c1=O (stereo not given)
  i	-1.6
- O=C(NN=C1CCCCCCC1)c1ccc2ccccc2n1
  i	-1.8
- Cc1ccc(Cl)c(N/C=C/C(=O)c2ccccc2)c1
  i	0.19
- O=C(CNC(=O)C1CCCCC1)NCCCO
  i	-1.6
- CC(C)(C)C1CCc2onc(C(=O)NC3CCCC3)c2C1 (stereo not given)
  i	-0.9
- CC1CCN(C(=O)C(=O)c2cn(CC(=O)N3CCCC3)c3ccccc23)CC1
  i	0.13
- Cc1nccn1Cc1ccccc1
  i	-0.12
- Cc1ccc2c(c1)c1c3n2CCN(C(=O)CN2CCN(C)CC2)C3CCC1 (stereo not given)
  i	0.67
- c1ccc(COC(CN2CCCCCC2)CN2CCCCCC2)cc1
  i	-0.37
- COc1ccc(C)cc1NC(=S)N1CCN(c2ncccn2)CC1
  i	2.5
- CN(C)c1ccc(NC(=O)CCN2CCN(c3ccccn3)CC2)cc1
  i	1
- O=C(Cc1c(F)cccc1Cl)Nc1ccncc1
  i	-1.3
- Oc1ccc(/C=N/Nc2ccc(C(F)(F)F)cn2)c(O)c1
  i	-1.6
- CC(=O)N(CCN1CCOCC1)Cc1cc2cc3c(cc2nc1Cl)OCO3
  i	0.24
- O=C(COC(=O)c1cccnc1Nc1cccc(C(F)(F)F)c1)NCc1ccc2c(c1)OCO2
  i	0.24
